# From PubChem
# TRPV1 potentiator – potentiators of human vanilloid receptor 1 (TRPV1) | Q8NER1 | TRPV1-expressing cells, Fluo-8 calcium influx, capsaicin EC20 potentiation; host cell line not named in the record; control for the full effect not named in the record | potentiation, % at 8.33 µM | 0.02% of 320,000 active; active means potentiation above 80%; inconclusive means 30% to 80%; inactive means below 30%; note: 0% is about no effect
# Target sequence (Q8NER1 whole entry, looked up): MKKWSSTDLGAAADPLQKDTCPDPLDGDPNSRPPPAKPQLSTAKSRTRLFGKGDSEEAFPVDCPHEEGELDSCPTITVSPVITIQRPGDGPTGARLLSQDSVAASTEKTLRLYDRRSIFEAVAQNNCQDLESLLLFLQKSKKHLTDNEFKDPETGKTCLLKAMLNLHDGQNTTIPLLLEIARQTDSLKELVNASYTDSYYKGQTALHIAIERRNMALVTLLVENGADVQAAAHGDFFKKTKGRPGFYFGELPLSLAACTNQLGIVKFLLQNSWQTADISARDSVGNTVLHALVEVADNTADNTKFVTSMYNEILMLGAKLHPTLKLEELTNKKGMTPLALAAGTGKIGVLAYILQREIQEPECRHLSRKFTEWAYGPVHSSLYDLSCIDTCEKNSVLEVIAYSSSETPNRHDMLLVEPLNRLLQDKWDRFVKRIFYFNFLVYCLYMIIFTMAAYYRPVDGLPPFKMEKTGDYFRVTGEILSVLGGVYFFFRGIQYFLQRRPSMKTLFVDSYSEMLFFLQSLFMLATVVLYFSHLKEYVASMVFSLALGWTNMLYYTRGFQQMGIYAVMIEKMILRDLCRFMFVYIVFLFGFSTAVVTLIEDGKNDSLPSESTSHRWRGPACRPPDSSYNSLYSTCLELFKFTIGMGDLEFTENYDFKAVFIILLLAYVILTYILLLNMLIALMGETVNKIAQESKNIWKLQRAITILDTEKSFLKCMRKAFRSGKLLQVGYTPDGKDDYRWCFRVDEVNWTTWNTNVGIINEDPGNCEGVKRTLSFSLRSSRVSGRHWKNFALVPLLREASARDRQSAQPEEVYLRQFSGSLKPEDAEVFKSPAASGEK
#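 TRPV1-expressing cells were cultured overnight at 35.5C and loaded with Fluo-8 calcium dye for 40 to 90 min at room temperature. After a 10 s baseline, compound was added and calcium influx was read kinetically for 3 min (ex 480/em 520 nm).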
# ClpP mod – qHTS Assay for Activators of ClpP | purified B. subtilis ClpP, FRET peptide cleavage, 20 min | Potency, µM (series often up to 57.5 µM), for the others: at the top dose activity change, negative = active | 1.9% of 340,000 active; active = well fitted falling curve with a large enough effect; inconclusive = small, poorly fitted or top-dose-only effect; inactive = no such curve, though single readings can be large or run the other way; note: potency is the fitted concentration of half-maximal effect; the source files actives as falling curves though it sought activators and does not explain the sign; nearly all actives have a fitted effect of over 65% in size; many hits overshoot -100%
# Target sequence (P80244 whole entry, looked up): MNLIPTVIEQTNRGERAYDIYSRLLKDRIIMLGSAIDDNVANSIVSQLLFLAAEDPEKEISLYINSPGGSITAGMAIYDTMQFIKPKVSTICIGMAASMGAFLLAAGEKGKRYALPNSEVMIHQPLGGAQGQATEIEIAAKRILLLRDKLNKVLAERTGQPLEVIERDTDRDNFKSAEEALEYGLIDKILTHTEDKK
#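 Purified B. subtilis ClpP, 10 microg/mL final in Tris/HCl pH8 with KCl, BSA, glycerol and Tween-20, cleaved an Abz/nitrotyrosine-quenched decapeptide. Fluorescence (ex 320, em 430) was read at 0 and 20 min at room temperature. Delta was normalized to 5.8 microM ADEP and DMSO/no-enzyme controls.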
# Sfp PPTase inh – inhibitors of Bacillus subtilis Sfp phosphopantetheinyl transferase | Potency, µM, without a hit: max response, negative = inhibition, actives largely listed as inhibitors | 3.5% of 310,000 active | Biochemical Sfp PPTase activity, qHTS | Q9F4F7; active = well fitted inhibition curve with a large enough effect; inconclusive = small, poorly fitted or top-dose-only effect, or another doubt; inactive = no such curve, though single readings can be large or run the other way;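 note: the enzyme is Sfp with the accession as filed and its product quenches rhodamine fluorescence; potency is the fitted concentration of half-maximal effect; 0% = enzyme reaction without inhibitor and -100% = no enzyme wells; top concentration of the series not given in the record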
#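 Fluorescence-quenching assay with 15 nM Sfp, 5 uM rhodamine-CoA and 12.5 uM BHQ-2-labelled ybbR peptide in pH 7.6 Hepes/MgCl2 buffer. Enzyme was pre-incubated with compound for 15 min at room temperature. Rate was taken from the 30-min fluorescence change (525/598 nm).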
# Menin-MLL FL inh – menin-MLL binding inhibition, fluorescein peptide. FP activity change, % at 61.4 µM. Fluorescence polarization, fluorescein-MLL peptide displacement from menin. 290,000 tested, under 10 active. AID 1766; inconclusive = falling polarisation curve, or a change in total fluorescence; inactive = total fluorescence flat and polarisation flat or rising; no compound was filed as active; the % refers to the polarisation; negative = inhibition;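 note: % of control where 0% means no effect; inhibitors lower the polarisation; unlabelled MLL peptide was the positive control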
# CtBP-E1A inh – blocks the CtBP interaction with E1A | AlphaScreen GST-E1A/His-CtBP binding, 1536-well; stronger effect = lower value; control for the full effect not named in the record | activity change, % (no concentration beside the values) | 0.49% of 340,000 active | AID 651724; in the data active means activity change below about -65%; inconclusive means about -30% to -65%; inactive means above about -30%; note: % is set by controls: 0 for no effect and ±100 for the full control effect; compound concentration not given in the record
#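 In 5 uL wells, 23 nL compound meets equimolar GST-E1A and His-CtBP (5X stock 125 nM each) for 2 h, 37 °C. Beads (5X, 50 ug/mL) then 1 h, 37 °C, dark.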
# gsp antag – antagonizes gsp, the McCune-Albright syndrome mutation; gsp-mutant cells, cAMP HTRF, 30 min; control for the full effect not named in the record; Potency, µM (doses to about 76.9 µM), without a hit: at the top dose activity change, negative = inhibition, usual class: inhibitors; 0.4% of 340,000 active; AID 624288; active = falling curve of any shape with a large fitted effect; inconclusive = falling curve, mostly with a smaller effect; inactive = flat or rising curve; cell line not stated here;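 note: intracellular cAMP measured with PDE inhibitor Ro 20-1724 present during compound exposure; potency is the fitted concentration of half-maximal effect; % is set by controls: 0 for no effect and ±100 for the full control effect; nearly all actives have a fitted effect of over 65% in size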
#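 HTRF cAMP measurement after 30 min RT detection following 30 min, 37C compound treatment alongside […] (added as 300 uM solution) in G418-selected cells seeded at 2000/well and grown 16–24 h.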
# gsp ag – agonists of gsp mutant (McCune-Albright syndrome); gsp mutant cells, cAMP HTRF, 30 min; control for the full effect not named in the record; Potency, µM (series often up to 76.9 µM), without a hit: at the highest dose activation (cAMP increase), usual class: activators; 0.13% of 340,000 active; AID 624287; active = well fitted activation curve with a large enough effect; inconclusive = small, poorly fitted or top-dose-only effect, or another doubt; inactive = no such curve, though single readings can be large or run the other way; cell line not stated here;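 note: phosphodiesterase inhibitor Ro 20-1724 added with compounds to block cAMP breakdown; potency is the fitted concentration of half-maximal effect; nearly all actives have a fitted effect of over 60% in size; about a fifth of the inactives were tested at one dose only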
#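 Cells in DMEM/10% FBS with G418 were pretreated with compounds in DMSO plus […] (300 uM stock) for 30 min at 37C. cAMP was measured by HTRF (cAMP-d2 plus anti-cAMP antibody-K) after 30 min at room temperature.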
# An asterisk follows results filed as active; ? = inconclusive; nt = not tested or not shown; & = joins results of further samples; [ ] = another dose, or the depositor's remark. The order is random; 5.3% or so of the library scored in one or more.
SMILES,TRPV1 potentiator,ClpP mod,Sfp PPTase inh,Menin-MLL FL inh,CtBP-E1A inh,gsp antag,gsp ag
O=C(Cn1cnc2ccc(Br)cc2c1=O)c1cccs1,nt,0.6%,6%,3.7,2,-4%,?
COc1ccc(-c2noc(N3CCC(C(=O)Nc4ccccc4OC)CC3)n2)cc1,7,1.3%,-2%,5.3,1,?,15%
CN(C)S(=O)(=O)c1ccc(C(=O)NCc2nnc(SCC(=O)Nc3ccc(F)cc3)n2-c2ccc(F)cc2)cc1,7,1.2%,0%,9.1,0,4%,-2%[15.4 µM]
O=C(NCCN1CCCC1=O)C1CCC(=O)N(CCc2cccc(F)c2)C1 (stereo not given),2,-18%,7%,-1.5,0,11%,23%[15.4 µM]
CC(Oc1cccnc1[N+](=O)[O-])C(=O)Nc1cccc(Cl)c1 (stereo not given),-7,0.1%,nt,nt,nt,-21%,-4%
O=C(O)CCCCCNC(=O)c1ccccc1Br,1,-2.7%,6%,4.9,0,5%,-26%
O=C(CCNS(=O)(=O)c1ccc2[nH]c(=O)oc2c1)Nc1cccc(Br)c1,-8,-1.6%,2%,0.4,-5,7%,21%
CCCCCn1c(CN2CCN(c3cccc(Cl)c3)CC2)nc2c1c(=O)[nH]c(=O)n2C,6,-3.9%,-17%,0.7,-9,10%,-5%
CC(C)CN(C(=O)COC(=O)CCC(=O)c1ccc(Cl)cc1)c1c(N)n(Cc2ccccc2)c(=O)[nH]c1=O,-2,nt,nt,nt,-10,-3%,-8%[15.4 µM]
Cc1cccn2c(=O)nc(SCC(=O)NCc3ccco3)nc12,2,0.6%,nt,nt,0,7%,39%[15.4 µM]
Cn1nc(Cc2n[nH]c(=S)n2C)c2ccccc2c1=O,5,nt,2%,1.7,-2,7%,-2%[15.4 µM]
CCCC(=O)Nc1ccc2c(c1)nc(CCN1CCN(c3ccccn3)CC1)n2C,-10,nt,12%,9.4,-6,-1%,?
COC(=O)C1=C(O)/C(=C\c2ccc(CNC(=O)C(=O)Nc3ccc(C)c(C)c3)o2)N=C1C,2,-5.4%,?,?,0,2%,-10%
O=[N+]([O-])c1cc(C(F)(F)F)ccc1Oc1cccnc1[N+](=O)[O-],?,nt,-7%,6.8,3,-3%,6%
Cc1ccc(S(=O)(=O)N2CCN(CC(=O)Nc3ccnn3C3CCCC3)CC2)cc1,-12,-2.0%,nt,nt,nt,1%,21%
COc1ccc(/C=C(/NC(=O)c2ccccc2)C(=O)NC2CCS(=O)(=O)C2)cc1 (stereo not given),3,-2.4%,9%,3.7,nt,71%[activator],-3%
CCOc1ccc(/C=N/N(C)c2ccccc2)cc1OC,11,1.1%,-11%,-0.1,-29,-8%,-35%[inhibitor]
COc1ccc(CCNC(=O)C/C(C)=N/NC(=O)C23CC4CC(CC(C4)C2)C3)cc1OC,0,-10%,17%,-2.7,1,3%,-2%
Cc1nc2ccc(NC(=O)c3ccc(S(=O)(=O)N(C)c4ccccc4)cc3)cc2s1,-57,-0.5%,-3%,7.5,-5,?,10%[15.4 µM]
COc1ccc(/C=C/CN2CCN(Cc3ccccc3)C(CCO)C2)cc1 (stereo not given),3,nt,16%,3.2,-3,-16%,-6%[15.4 µM]
COc1ccc(CCNC(=O)c2cnn(-c3ccc(C)c(C)c3)c2NC(=O)c2ccco2)cc1OC,15,-1.3%,2%,0.1,-11,8%,-9%
CC(C)(C)c1ccc(C(=O)NCC(=O)N/N=C/c2ccccc2OCC(=O)O)cc1,-10,nt,-11%,-6.3,0,1%,14%
O=C(Nc1cccc(S(=O)(=O)C(F)F)c1)c1ccc(S(=O)(=O)N2CCOCC2)cc1,-25,-0.6%,15%,4.6,-1,1%,15%
CC(C)c1ccc(NC(=O)C2CC3CCC2C3)cc1 (stereo not given),-7,nt,-8%,-0.3,13,-8%,-28%
CCOC(=O)/C=C1\SCC(=O)N1CC(=O)NCc1ccc(OC)c(OC)c1,-13,nt,7%,0.3,2,5%,-6%[15.4 µM]
Cc1cccc([C@@H]2[C@@H]3C(=O)N(Cc4ccccc4)C(=O)[C@@H]3[C@]3(Cc4ccc(Cl)cc4)C(=O)N(c4cccc(Cl)c4)C(=O)N23)c1,-25,-7.7%,nt,nt,2,-2%,-12%
Cc1ccccc1Nc1nc(N)nc(C)c1Br,nt,nt,nt,nt,8,12%,13%
CN1OC[C@@H]2CN[C@H](c3cccc(-c4cc(Cl)cc(Cl)c4)c3)C[C@@H]21,nt,-1.0%,nt,nt,-6,9%,nt
COC(=O)c1scc(C#N)c1N/N=C(\C#N)S(=O)(=O)c1ccc(Cl)cc1,17,nt,25%,0.8,-5,?,-4%[15.4 µM]
O=C(CCn1c(=O)sc2ccccc21)NCc1ccccc1,11,-3.6%,23%,-2.1,0,-2%,-56%[inhibitor]
COc1ccc(NC(=O)/C(=C\c2ccc3c(c2)OCO3)NC(C)=O)cc1,?,-1.0%,-12%,0.0,-2,7%,8%[15.4 µM]
CCCCNC(=O)c1ccccc1NC(=O)C1=C(C)OCCS1,4,-0.7%,5%,3.3,-1,7%,8%
COc1cc2c(cc1OC)C(c1cccs1)N(C(=O)c1cccc(S(=O)(=O)N(C)C)c1)CC2 (stereo not given),-4,nt,-1%,21,16,?,-10%[15.4 µM]
Cc1ccc(Cl)cc1N1CCN(C(=O)CN(c2ccccc2)S(=O)(=O)N(C)C)CC1,10,nt,-17%,-1.4,nt,-20%,-12%[15.4 µM]
COc1cccc(C=Nc2ccc(C)c(F)c2)c1O,7,-1.2%,-10%,1.7,-7,-2%,?
COCCn1c(=NC(=O)c2cc3ccccc3oc2=O)sc2cc(S(N)(=O)=O)ccc21,-9,-15%,-15%,-1.1,-16,-7%,1%[15.4 µM]
O=C(c1ccc(Cl)cc1)c1cnc(-c2ccccc2)s1,nt,20µM*,1%,2.7,6,-35%,-1%
CCC[C@@H](CNC)NC[C@H](Cc1ccccc1)NCCCCc1ccccc1,15,1.6%,14%,0.4,-8,4%,2%
CCOC(=O)CCc1c(C)nc(SCC(=O)O)c(C#N)c1C,1,-1.9%,79µM*,0.3,-1,-1%,5%
CN(C)n1cccc1/C=C(\C#N)S(=O)(=O)c1cccc(Cl)c1,-2,nt,-5%,1.2,-2,?,8%[15.4 µM]
COC(=O)c1ccc(/C=C/c2c(-c3ccc(OC)cc3)oc3ccc(N4CCOCC4)cc23)cc1,11,4.0%,-12%,0.6,nt,13%,?
Cc1cc(C)c2oc(C(=O)N3CCN(Cc4ccccc4)CC3)cc(=O)c2c1,-29,-2.9%,1%,0.5,5,3%,?
COc1ccccc1C(=O)NCC(=O)NCCc1ccc(Cl)cc1,7,nt,15%,4.0,-3,-1%,28%
Cc1c(N(C)S(=O)(=O)c2ccc(Cl)c(C(=O)NCC3CCCO3)c2)c(=O)n(-c2ccccc2)n1C (stereo not given),nt,0.3%,nt,nt,1,-21%,-7%
CCc1ccc([C@@H]2CC=C(C(=O)O)[C@H](c3cccc(Cl)c3)N2S(=O)(=O)c2ccc(C)cc2)cc1,?,0.6%,nt,nt,nt,-2%,?
CCOc1ccc(C(C(=O)NC2CCCC2)N(C(=O)CNC(=O)c2ccco2)c2cccnc2)cc1 (stereo not given),1,nt,7%,-1.2,7,1%,2%[15.4 µM]
c1ccc(OCc2nnc3sc(C4COc5ccccc5O4)nn23)cc1 (stereo not given),?,0.6%,25µM*,5.2,23,-1%,-14%
O=C(CSc1nnnn1-c1ccccc1F)Nc1nc2ccccc2s1,-8,-0.4%,7%,1.8,-3,4%,-57%[inhibitor]
O=c1[nH]cccc1-c1nc2cc(Cl)ccc2n1Cc1ccccc1,5,3.6%,13%,5.2,1,3%,33%
Cc1ccc(OCc2cc(C(=O)NCc3cc(F)ccc3C)no2)cn1,-3,-1.1%,16%,4.5,3,-8%,-70%[inhibitor]
COc1ccccc1NC(=S)NC(=O)c1c(-c2ccccc2Cl)noc1C,-4,0.7%,11%,-2.8,nt,-17%,-10%
COc1cc(C(=O)OC2CCOC2=O)cc(Cl)c1OC (stereo not given),8,nt,4%,-1.4,-4,9%,-26%
CCOC(=O)C1C(=O)CC(C)(O)C(C(=O)OCC)C1c1ccc(Br)cc1 (stereo not given),-1,0.7%,3%,4.1,6,0%,-16%
COc1ccc(CN2CCN(c3ncccn3)CC2)c(OC)c1,-1,-8.6%,-10%,-0.9,4,11%,-19%
COC(=O)c1ccc(NC(=O)c2cccnc2)cc1,-7,-2.0%,16%,-0.7,nt,3%,-10%
Cc1[nH][nH]c(=O)c1C(c1cc2c(cc1Br)OCO2)c1c(C)[nH][nH]c1=O,28,nt,-23%,-2.7,nt,15%,-1%[15.4 µM]
CC(=O)N(C)c1cccc([N+](=O)[O-])c1,-4,nt,15%,-1.6,2,2%,2%
CSc1ccc(-c2nc3cnccn3c2Nc2ccc3c(c2)OCO3)cc1,9,-4.6%,?,-3.8,-25,-16%,?
C#CCOCCOCCOCCNc1nc(N2CCN(C(=O)[C@H]([C@@H](C)CC)n3cc(CCCN=C(N)N)nn3)CC2)nc(N2CCN(C(=O)[C@H](C)n3cc(CCCN=C(N)N)nn3)CC2)n1,2,-0.7%,4%,6.0,0,13%,nt
Cc1ccc(S(=O)(=O)Nc2cc(=O)[nH]c(SCC(=O)Nc3cccc(C)c3)n2)cc1,6,-1.3%,24%,-0.1,nt,10%,4%
# Additional entries:
SMILES,TRPV1 potentiator,ClpP mod,Sfp PPTase inh,Menin-MLL FL inh,CtBP-E1A inh,gsp antag,gsp ag
COCCOC(=O)c1c(NC(=O)COC(=O)c2ccc(C)o2)sc(C(N)=O)c1C,6,-11%,nt,nt,nt,-21%,20%
COc1ccc(OC)c(S(=O)(=O)N2CCN(c3ccccc3)CC2)c1,?,-1.9%,11%,-0.8,-7,-4%,10%
CCN(c1ccccc1)S(=O)(=O)c1nnc(NC(=O)C(C)(C)C)s1,-6&15,-4.7%&1.4%,20%,?,0,-9%,18%
Cc1ccc(OCC(=O)NNC(=S)NC(=O)C(C)(C)C)c(Br)c1,-9,nt,7%,-0.3,-1,-3%,1%[15.4 µM]
